GIV Gai3 FP: blocks GIV peptide binding to rat Galpha-i3 | 210,000 tested, 0.42% active | percent of control (FP), % (concentration not given with the values) | Galpha-i3/FITC-GIV peptide fluorescence polarization, 90 min; stronger effect = lower value; scaled: aluminum fluoride 0%, vehicle 100% | P08753;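 active = replicate mean at 85% of control or lower, very high polarization wells dropped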;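 also: wells of about 15 µL received 100 nL stock; the first replicate is given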
Target sequence (P08753 whole entry, looked up): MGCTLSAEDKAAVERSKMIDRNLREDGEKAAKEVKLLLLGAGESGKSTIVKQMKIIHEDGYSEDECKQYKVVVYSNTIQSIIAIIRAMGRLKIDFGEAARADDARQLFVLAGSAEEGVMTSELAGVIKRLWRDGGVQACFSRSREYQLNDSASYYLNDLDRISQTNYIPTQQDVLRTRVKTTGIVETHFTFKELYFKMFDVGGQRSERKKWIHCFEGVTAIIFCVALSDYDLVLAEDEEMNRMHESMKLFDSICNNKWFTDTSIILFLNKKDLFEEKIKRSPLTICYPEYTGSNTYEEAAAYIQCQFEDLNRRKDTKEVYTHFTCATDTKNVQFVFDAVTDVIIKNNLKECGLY
Sa growth inh: S. aureus growth inhibition; S. aureus RN4220 growth, OD600, 20 h, 42 °C; stronger effect = lower value; relative growth, % (test concentration not listed); 170,000 tested, 0.53% active; AID 720641;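 active = growth at 42 °C up to 50% and 20 or more points under that at 30 °C, or under 10% at both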;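 also: 300 nL library stock went into each well; scaled to the means of positive and negative controls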
HCMV NEC inh: disrupts HCMV UL50-UL53 complex binding; HTRF UL50-UL53 interaction, normalized percent inhibition; 190,000 tested, 0.15% active; inhibition, % (no concentration beside the values); AID 1918969;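 active = both replicates at 50% or more, plus weaker picks with an unusually low signal ratio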;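 also: stock transfer was 100 nL into about 20 µL; 0% = negative control wells and 100% = wells with untagged competitor protein; inactives centre near -12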
Sa growth inh second temp: second read-out of Sa growth inh, no call of its own (marks repeat the call); relative growth, %; measured here: growth at 30 °C;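 optical density after 20 h as mean of two plates; 100% = untreated growth and lower means inhibition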
The depositor's hits bear a star; / = no result given; & = joins results of further samples.

SMILES	GIV Gai3 FP	Sa growth inh	Sa growth inh second temp	HCMV NEC inh
CC1CCc2nn(CC(=O)N3CCC(Cc4ccccc4)CC3)cc2C1 (stereo not drawn)	102	/	/	-26
Cc1cccn2c(=O)c3cc(C(=O)NC4CCCCC4)c(=N)n(Cc4ccco4)c3nc12	104	95	89	-26
Cc1ccc2[nH]cc(CCN3CC(C(=O)Nc4ccc(Cl)cc4)CC3=O)c2c1 (stereo not drawn)	103	/	/	-7
COCc1cc(C)nc(OCC(=O)O)c1C#N	100	104	90	0
CSc1ccc(C2C(C(=O)Nc3ccccc3C(F)(F)F)=C(C)NC3=C2C(=O)CCC3)cc1 (stereo not drawn)	98	/	/	5
CCn1c(=O)[nH]c2cc(Cl)c(Cl)cc21	107	/	/	-1&-33
Cn1c(-c2nnc(SCC(=O)NCc3nc4ccccc4[nH]3)o2)cc2ccccc21	93	/	/	-11
O=C(COC(=O)C1COc2ccccc2O1)Nc1ccccc1 (stereo not drawn)	/	76	92	-15
Cc1cc2ccccc2c(=O)n1CC(=O)O	101	/	/	8
CC1=C(C(=O)N2CCCCC2)C(c2cccs2)C2=C(CCCC2=O)N1 (stereo not drawn)	103	99	93	/
Cc1[nH]c2ccccc2c1C1=CSC2=NS(=O)(=O)CCN12	/	87	93	-18
N#Cc1ccccc1Cn1c(SCC(=O)Nc2ccc(F)cc2)nc2ccccc21	104	90	87	/
CCOc1ccc2nc(N(Cc3cccnc3)C(=O)C3CCCCC3)sc2c1	100	146	88	/
CCN(CC(=O)Nc1ccccc1OC)Cc1cc(=O)n2cc(Cl)ccc2n1	/	108	86	-53
Cc1ccc(S(=O)(=O)c2nc(S(=O)(=O)c3ccc(C)cc3)c(NC(C)C)s2)cc1	99	88	89	-2
CCOc1ccc(NC(=O)CC2C(=O)N(c3ccccc3)C(=O)N2CCc2ccc(OC)cc2)cc1 (stereo not drawn)	99	102	73	-27
CCC(=O)N1CCc2cc(CNS(=O)(=O)c3cccs3)ccc21	99	71	79	/
CC(NC(CC(=O)c1ccc(F)cc1)C(=O)O)c1ccccc1 (stereo not drawn)	/	104	87	-2
COc1ccc(C2CCCN2Cc2nc(N)nc(Nc3ccc(C)cc3)n2)c(OC)c1 (stereo not drawn)	/	101	81	-28
S=c1oc(-c2ccccc2)nn1CNc1ccccc1	105	123	66	-15
Cc1ccc(N2C(=O)CCS2(=O)=O)cc1S(=O)(=O)NCCc1c[nH]c2ccccc12	105	/	/	-4
CNC(=O)NC(=O)C(Sc1nnc(-c2ccc(C)cc2)o1)c1ccccc1 (stereo not drawn)	/	107	88	-8
CCOc1ccc(N2CCCCn3c2nc2c3c(=O)n(CCOC)c(=O)n2C)cc1	98	/	/	-16
Cc1cccc(C)c1NC(=O)CSc1nc(=O)[nH]nc1C	100	/	/	-32
CCc1cccc(CC)c1NC(=O)Cn1c(=O)c(-c2cc(C)ccc2NC(C)=O)nc2ccccc21	101	94	83	-20
O=C(Cn1c(=O)c2cccn2c2ccccc21)Nc1cc(F)ccc1F	114	92	66	-1
Cc1nnc(SCc2ccccc2)c2cc3sccc3n12	108	93	62	/
Cc1ccc2c(c1)-c1nc(-c3ccccc3)cc(-c3ccccc3)c1CO2	102	100	84	-10
Cc1cccc(C(=O)Nc2ccc(N3CCN(C(C)C)CC3)cc2)c1	100	/	/	8
CCOc1ccc(CNC(=O)Cn2ccc3cc(S(=O)(=O)N4CCCCC4)ccc32)cc1	103	117	90	/
CCn1nc(C(=O)OCC(=O)c2cc(C)n(Cc3cccs3)c2C)c2ccccc2c1=O	/	106	96	0
CCN1CC(=O)N(c2ccccc2OC)C1=S	/	116	98	11
CC(C)n1c(COc2ccc(Cl)cc2)nc2ccccc21	/	18	26	-4
CCOC(=O)C1CCCN(C(=O)c2ccc3c(c2)sc2nc(-c4ccc(CC)cc4)cn23)C1 (stereo not drawn)	107	101	91	/
CCSc1oc(-c2ccco2)nc1S(=O)(=O)c1ccc(Br)cc1	106	92	80	18
CSc1nnc(-c2ccccc2)n1C	99	99	106	2
O=C(NCCc1ccccc1)c1ccc(CSc2nc3ccncc3n2Cc2ccccc2F)cc1	100	118	98	-5
FC(F)(F)c1ccccc1N=C1CCCc2ccccc21	101	84	86	-35
C=CCn1c(=S)[nH]c2sccc2c1=O	/	77	58	-13
O=C(CSc1nccn1-c1ccc(C(=O)NCc2ccccc2)cc1)Nc1ccccc1	96	/	/	-8
CCc1ccc(-c2cn3c(n2)SCC3)cc1	106	112	70	21
Cc1cccc(-n2ccnc(NCc3ccccc3)c2=O)c1	105	/	/	-51
CCCCN1C(=S)SC(C)(C)C1NO (stereo not drawn)	100	89	65	5
Cc1ccc(-c2nc(N)n(C(=O)C3CC3)n2)cc1C	104	/	/	-10
O=c1[nH]c2cc3c(cc2c(=O)n1CCCc1nc(-c2ccccc2Br)no1)OCO3	107	/	/	-5
C=CCN1C(=O)C(CC(=O)Nc2ccc(Cl)cc2)NC1=S (stereo not drawn)	98	98	96	4
N#CC1=C(N)Oc2n[nH]c(-c3ccc4c(c3)OCO4)c2C1c1c(F)cccc1Cl (stereo not drawn)	109	/	/	1
CC(C)NC(=S)N/N=C/C1CC=CCC1 (stereo not drawn)	/	110	92	-31
c1ccc(OCc2nnc(-c3ccccc3)o2)cc1	99	107	97	-1
COc1cccc(CNC(=O)CCCCCn2c(=O)[nH]c3cc(OC)c(OC)cc3c2=O)c1	103	89	96	8
N#Cc1cnn2c(-c3ccccc3)ccnc12	105	/	/	-20
COc1cc2c3c(ccc2c(OC)c1OC)-c1[nH]ncc1CC3	/	80	57	-28
Cc1csc2nc(SCCC(=O)Nc3ccccc3)[nH]c(=O)c12	101	109	111	-23
COc1ccc(Cl)cc1NC(=O)CCn1c(=O)c2cccn2c2ccccc21	101	113	93	-15
O=C1c2ccccc2C(=O)N1CCc1nnn(Cc2ccc(Cl)cc2)n1	/	86	99	-18
CN(CCC#N)C(=O)c1cc2c(s1)-c1ccccc1S(=O)(=O)C2	108	123	91	/
CCNC(=S)N/N=C/c1ccc(C)s1	/	85	85	-16
Cc1ccc(C)c(S(=O)(=O)c2nnn3c2nc(Nc2ccc(F)c(Cl)c2)c2sccc23)c1	102	110	81	/
CC(=O)Nc1ccc(NC(=O)C(C)OC(=O)C2CC3C=CC2C3)cc1 (stereo not drawn)	/	114	74	-16
Cc1occc1-c1nnc2sc(COc3ccc(F)cc3)nn12	106	/	/	-9
The results go on.
SMILES	GIV Gai3 FP	Sa growth inh	Sa growth inh second temp	HCMV NEC inh
COc1ccc(CCN(C)C(=O)CSc2nnc3n2CCCCC3)cc1OC	/	105	92	0
COc1cccc(C2CC(=O)Nc3nc(N)[nH]c(=O)c32)c1 (stereo not drawn)	102&100	100	93	-17&12
CC1CCN(C(=O)Cn2cc(SCc3ccccc3Cl)c3ccccc32)CC1	109	/	/	-10
COc1cc(C(=O)Nc2ccc3oc(-c4ccc(C)c(Br)c4)nc3c2)cc(OC)c1OC	103	98	83	-12
O=C(NC1CCCCC1)C1CCN(c2cc(-c3ccccc3)ncn2)CC1	102	/	/	-36
Cc1csc(-n2[nH]c(C)c(CCC(=O)Nc3ccc(F)cc3)c2=O)n1	105	/	/	-22
CCN1C(=O)c2ccc(-c3nc4cc(Cl)ccc4o3)cc2C1=O	101	93	98	-13
C=CCN(CC=C)S(=O)(=O)c1ncn[nH]1	/	91	76	6
Fc1ccc(CN2CCC(CNc3nn4nnnc4c4ccccc34)CC2)cc1	99	/	/	-19
CCCCn1c(CCc2cc(OC)c(OC)c(OC)c2)nc2cc(S(N)(=O)=O)ccc21	/	95	89	3
CCOc1ccccc1CNC(=O)CCc1c(C)nn(-c2ccc(N3CCOCC3)nn2)c1C	106	106	89	/
CCOC(=O)c1n[nH]c(=S)[nH]c1=O	104&111	98&89	90&97	-68&-31
CC(C)(C)C1CCc2c(sc(NC(=O)c3ccco3)c2C(=O)N2CCCC2)C1 (stereo not drawn)	98	98	83	-8
C=CCC(Nc1ccc(OC)cc1)c1ccco1 (stereo not drawn)	/	81	89	-7
Cc1ccc2oc(=O)c3cc(C(=O)NCCc4ccc(S(N)(=O)=O)cc4)sc3c2c1	101	/	/	6
COc1cc(OC)cc(-c2nc3ccccc3c(=O)n2NC(=O)c2ccc(Br)cc2)c1	101	/	/	-12
CC(C[N+](C)(C)C)OC(=O)C1(c2ccccc2)CCCC1 (stereo not drawn)	98	102	95	/
CCOc1ccc(NC(=O)C(=O)NCC(c2cccnc2)N2CCc3ccccc32)cc1 (stereo not drawn)	105	108	87	-16
CCOc1ccccc1CN(C)CCc1ccccn1	105	97	83	-17
CC1CCC(C(=O)NC(C(=O)OCC(=O)c2ccccc2)C(C)C)CC1 (stereo not drawn)	102	113	101	4
CCN(CC)CCN1Cc2c(sc(C)c2C)N(C(=O)c2ccccc2)C1	102	113	86	/
COc1ccc(C2C(C(=O)Nc3ccc(C)cc3C)=C(C)Nc3nc4ccccc4n32)c(OC)c1 (stereo not drawn)	99	98	87	-20
CCOc1ccc(NC(=O)Nc2cc(NC(=O)Nc3ccc(OCC)cc3)c(C)nc2C)cc1	96	/	/	-26
CCCOc1ccc(C2c3c(oc4ccc(F)cc4c3=O)C(=O)N2CCc2ccc(OC)cc2)cc1 (stereo not drawn)	100	83	92	-22
O=S(=O)(c1cccc2nsnc12)N1CCCC1	94	94	92	-60
COc1cc(C(=O)N(CCC#N)C2CCCCC2)cc(OC)c1OC	99	94	87	-10
O=C(NC1CCCCC1)Sc1ccccc1	98	90	70	-116
N/C(=N\O)c1cccc(-n2cccc2)c1	106	110	83	/
CC(OC(=O)c1ccco1)C(=O)Nc1ccccc1-c1ccccc1 (stereo not drawn)	/	145	91	-3
CC1=C(C(=O)Nc2ccc(C)cc2C)C(c2ccc(C(=O)O)cc2)n2nc(SCc3ccccc3)nc2N1 (stereo not drawn)	97	93	88	-10
CCOC(=O)c1cncc(C#CCOC(=O)c2c(-c3ccccc3)noc2C)c1	99	99	89	9
COc1cccc(NC(=O)c2oc3ccccc3c2NC(=O)c2ccc(OC(C)C)cc2)c1	107	105	93	-12
COc1cc(NC(=O)c2cc(-c3ccncc3)n[nH]2)cc(OC)c1	112	/	/	7
CC(NC(=O)C1=NN(C2CCS(=O)(=O)C2)C(=O)CC1)c1ccc(S(N)(=O)=O)cc1 (stereo not drawn)	/	98	95	-1
Cc1c(C(=O)NC(C)C)nnn1-c1ccc2noc(-c3ccc(Br)cc3)c2c1	108	/	/	-26
Cc1cccc(N2CCN(C(C)C(=O)N(C)c3ccccc3)CC2)c1C (stereo not drawn)	/	100	89	-35
Cc1cc(-c2ccccc2)n2nc(-c3ccccc3)cc2n1	103	103	84	-31
CCOC(=O)c1cnn(CCOC(=O)C(C)(C)C)c1NC(=O)C(C)(C)C	106	105	97	8
c1ccc(N2CCN(Cc3nnnn3Cc3ccc4c(c3)OCO4)CC2)cc1	99	103	91	-24
Cc1cc(C)cc(Nc2nc3cc(Cl)c(Cl)cc3nc2-n2nc(C)cc2C)c1	101	104	91	-4
CCN(CC)Cc1nc2sc(C)c(C)c2c(=S)[nH]1	/	-0.7*	-0.9*	-11
COc1cccc2c1c(NC(=O)C1CCN(C(=O)OCc3ccccc3)CC1)nn2C	106	98	91	-23
COC(=O)c1sc2nc3ccccc3cc2c1N	113	116	97	-21
NNc1ccc(Br)cc1	/	99	76	-2
CCCNC(=O)CN1C(=O)COc2ccc(S(=O)(=O)N(CC)CC)cc21	102	/	/	9
CSC(SC)=C(C#N)C(=O)c1cccc(C(F)(F)F)c1	107	91	79	-5
COc1ccc(C)cc1N(C)C(=O)c1cc2c(=O)[nH]c3ccc(C)cc3c2s1	101	99	92	/
CCCCC(=O)Nc1ccc(C(=O)OCc2cc(=O)n3nc(C4CC4)sc3n2)cc1	107	86	91	/
CCc1ccccc1NC(=O)CSc1nc2n[nH]c(C)c2c(=N)n1-c1cccc(C)c1	100	105	96	/
Cc1ccc2oc(=O)cc(CSc3cnc4ccccc4n3)c2c1	101	96	77	-15
Cc1nc2cc(-c3noc(-c4cnccn4)n3)ccc2n(C(C)C)c1=O	106	/	/	-40

Screening results as filed in PubChem.
